N370S GC mod: N370S glucocerebrosidase modulation, Gaucher chaperone candidate; P04062; N370S GC spleen homogenate, 4MU-glucoside fluorescence; Potency, µM (series often up to 59.4 µM), for the others: at the highest dose activity change, negative = inhibition, most hits filed as inhibitors; 330,000 tested, 0.092% active; AID 2101;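 also: 0% = full enzyme activity and -100% = no enzyme basal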
FEN1 inh: human FEN1 inhibition. Recombinant FEN1 flap cleavage, fluorescence, 15 min. Potency, µM (top dose mostly 114 µM), for inactives: at the top dose activity change, negative = inhibition, actives largely listed as inhibitors. 390,000 tested, 0.35% active; also: nearly all actives have a fitted effect of over 65% in size
Target sequence (P39748 whole entry, looked up): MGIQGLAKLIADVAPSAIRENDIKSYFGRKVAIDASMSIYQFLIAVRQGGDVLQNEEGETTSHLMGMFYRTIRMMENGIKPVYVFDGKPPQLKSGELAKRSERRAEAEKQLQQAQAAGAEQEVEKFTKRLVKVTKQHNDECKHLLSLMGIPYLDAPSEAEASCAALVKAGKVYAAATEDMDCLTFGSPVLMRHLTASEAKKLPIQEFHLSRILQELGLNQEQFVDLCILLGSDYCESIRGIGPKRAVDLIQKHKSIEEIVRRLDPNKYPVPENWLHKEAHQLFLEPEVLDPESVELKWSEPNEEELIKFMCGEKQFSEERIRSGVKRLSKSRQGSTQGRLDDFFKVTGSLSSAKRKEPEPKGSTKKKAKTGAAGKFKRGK
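Enzyme 10 nM, 15 min RT preincubation with compound; start with substrate 50 nM final; reads at 0 and 15 min; qHTS titration, four-parameter Hill fit.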
The depositor's hits bear a star; ? = inconclusive; · = not tested or not shown; [ ] = remark or other dose. Calls follow the shape of the dose curve; as a rule, active = well fitted curve in the direction sought with a large enough effect; inconclusive = small, poorly fitted or top-dose-only effect, or another doubt; inactive = no such curve, though single readings can be large; an effect the other way counts as inactive or inconclusive. Unless noted, % is scaled to controls: 0 for no effect and ±100 for the full control effect; potency is read from the fitted curve at half-maximal effect.

N370S GC mod	FEN1 inh	SMILES
·	13%	CCCC(=O)Nc1c(C(=O)N2CCN(c3ccccc3)CC2)oc2ccccc12
-3%	2%	COc1ccc(CN(C)CC(=O)Nc2cccc3ccccc23)cc1F
-1%	-8%	O=C(Nc1ccc2c(c1)OCO2)NC1CCN(Cc2ccccc2)CC1
-13%	4%	COc1nc(Oc2ccc(=O)n(C)n2)nc(N(C)C)n1
7%	9%	NC(=O)NN=C1C2CCCC1C(c1ccccc1)NC2c1ccccc1 (configuration not stated)
·	3%	CCN(C(=O)COC(=O)c1cnccn1)c1cccc2ccccc12
-3%	-5%	CCOc1nc(NCc2ccco2)nc(Nc2ccccc2F)n1
-7%	11%	Cc1noc(N)c1C1(O)C(=O)Nc2c(Cl)cc(Cl)cc21 (configuration not stated)
-5%	-1%	O=S(=O)(Nc1nc2ccccc2nc1-[n+]1ccccc1)c1ccc(Cl)cc1
0%	1%	CC(C)CC(=O)c1c[nH]c(C(=O)NCc2cccs2)c1
-2%	13%	Cn1c(=O)c2c(nc(CN3CCN(c4ccc(F)cc4)CC3)n2CCN2CCOCC2)n(C)c1=O
-2%	-3%	S=C(NCc1ccco1)Nc1ccc(Cl)cc1
·	-6%	O=C(COc1ccc(F)cc1)Nc1ccc2nc(SCCOc3ccccc3)sc2c1
3%	2%	COc1ccc(CC(=O)NC2CC(C)(C)NC(C)(C)C2)cc1
-1%	1%	Cc1ccc(S(=O)(=O)NC(CC(C)C)C(=O)N2CCOCCOCCOCCOCC2)cc1 (configuration not stated)
-7%	-15%	CCn1c2c(c3ccc(OC)cc31)CCCC2=O
26%	-2%	CC(=O)Nc1ccc(S(=O)(=O)N(CC(=O)O)Cc2ccccc2)cc1
-1%	-7%	O=C(N/N=C/C=C/c1ccc(Br)cc1)C(O)c1ccccc1 (configuration not stated)
-2%	-1%	COc1ccc(CN2CCC(N3CCC(C(=O)N4CCOCC4)CC3)CC2)c(F)c1
1%	-9%	CCCCc1ccc(NC(=S)N2CCCC(C)C2)cc1 (configuration not stated)
2%	6%	O=C(Nc1ccc(N2CCN(C(=O)c3ccccc3)CC2)cc1)c1cc([N+](=O)[O-])ccc1N1CCOCC1
·	0%	NC(=O)C1CCCN(C(=O)c2ccc3c(c2)NC(=O)CS3)C1 (configuration not stated)
-6%	6%	COc1cccc(C(=O)NCCCN2CCN(CCCNC(=O)c3cccc(OC)c3)CC2)c1
?	-18%	CC[C@@H]1Cc2cc(O)ccc2C2=C1c1ccc(O)cc1C[C@H]2CC
-1%	22%	CN1CCC(N(C)C(=O)/C(C#N)=C/c2ccc(OC(F)F)cc2)CC1
8%	-5%	Nc1nc2ccc(O)cc2s1
13%	?	Cc1ccc(C)c2nc3sc(C(=O)O)cc3cc12
3%	0%	CCSc1nc2c(c(=O)[nH]1)C(c1ccc(C)cc1)C1=C(CCCC1=O)N2 (configuration not stated)
-7%	-24%	CC(=O)c1sc2nsc(SCCN3CCCCC3)c2c1N
1%	0%	Cc1ccc(-n2nc3c(N4CCC(C(=O)N5CCC(C(N)=O)CC5)CC4)nnc(C)c3c2C)cc1

6 structures already listed, sorted by molecular weight, smallest number first:
N370S GC mod	FEN1 inh	SMILES
13%	?	Cc1ccc(C)c2nc3sc(C(=O)O)cc3cc12
3%	2%	COc1ccc(CC(=O)NC2CC(C)(C)NC(C)(C)C2)cc1
·	0%	NC(=O)C1CCCN(C(=O)c2ccc3c(c2)NC(=O)CS3)C1 (configuration not stated)
26%	-2%	CC(=O)Nc1ccc(S(=O)(=O)N(CC(=O)O)Cc2ccccc2)cc1
3%	0%	CCSc1nc2c(c(=O)[nH]1)C(c1ccc(C)cc1)C1=C(CCCC1=O)N2 (configuration not stated)
·	-6%	O=C(COc1ccc(F)cc1)Nc1ccc2nc(SCCOc3ccccc3)sc2c1

In another format: 6 of the compounds above
Molecule | N370S GC mod | FEN1 inh
COc1cccc(C(=O)NCCCN2CCN(CCCNC(=O)c3cccc(OC)c3)CC2)c1 | -6% | 6%
Cc1ccc(-n2nc3c(N4CCC(C(=O)N5CCC(C(N)=O)CC5)CC4)nnc(C)c3c2C)cc1 | 1% | 0%
CCSc1nc2c(c(=O)[nH]1)C(c1ccc(C)cc1)C1=C(CCCC1=O)N2 (configuration not stated) | 3% | 0%
CCCC(=O)Nc1c(C(=O)N2CCN(c3ccccc3)CC2)oc2ccccc12 | · | 13%
CCOc1nc(NCc2ccco2)nc(Nc2ccccc2F)n1 | -3% | -5%
CC(=O)c1sc2nsc(SCCN3CCCCC3)c2c1N | -7% | -24%

The list continues:
N370S GC mod	FEN1 inh	SMILES
7%	-12%	Cc1ccc2nc(SCC(=O)Nc3ccc(F)c([N+](=O)[O-])c3)[nH]c2c1
19%	-3%	Cc1ccc(/C=C/C(=O)Nc2nn[nH]n2)o1
1%	1%	CN(C(=O)COC(=O)c1ccc(Cl)cc1N)C1CCCCC1
·	0%	Nc1cc(Cl)ccc1C(=O)OCC(=O)NC1CCS(=O)(=O)C1 (configuration not stated)
-4%	-13%	Cc1cccn2cc(-c3cccc(NC(=O)c4cccs4)c3)nc12
-10%	-2%	N/C(=N\OC(=O)Cc1ccccc1)c1cccnc1
-5%	23%	COC(=O)[C@H](CC(C)C)NC(=O)Nc1ccccc1F
?	14%	O=C(CCN1C(=O)/C(=C/c2ccc(Cl)cc2)SC1=S)NCCCn1ccnc1
-4%	1%	CC(CC(=O)N1CCc2ccccc21)n1cccn1 (configuration not stated)
10%	8%	CSC1=NC2C(N1)N(C)C(=O)N2C (configuration not stated)
·	9%	CC(=O)C1CCC2C3CCC4CC(=O)CCC4(C)C3C=CC12C (configuration not stated)
-3%	-10%	CC1=C(C)NC(=S)SC1
21%	-25%	CNc1oc(-c2ccc(C)cc2)nc1P(=O)(c1ccccc1)c1ccccc1
·	-11%	Cc1cc2c(cc1NS(=O)(=O)c1ccc(NC(=O)CC(C)C)cc1)n(C)c(=O)c(=O)n2C
?	0%	Cc1cc(NC(=O)CCC(=O)N(c2ccccc2)C(C(=O)NC2CCCC2)c2cccs2)no1 (configuration not stated)
·	-5%	CCC(CC)NC(=O)c1cc(S(=O)(=O)N2CCCCC2)ccc1N1CCOCC1
6%	-13%	CCOc1ccc(C(=O)c2cc([N+](=O)[O-])ccc2Cl)cc1
6%	9%	COc1cc(NC(=O)C2CCCO2)c(C(=O)O)cc1OC (configuration not stated)
-6%	1%	O=C(CSc1nnc(COc2ccc(Cl)cc2)o1)Nc1ccc(N2CCOCC2)cc1
-5%	0%	O=C(Nc1cccc(C(F)(F)F)c1)C(Sc1cccc[n+]1[O-])c1ccccc1 (configuration not stated)
-10%	15%	Cc1cccc(CC2S/C(=N/c3cccc(C)n3)NC2=O)c1 (configuration not stated)
0%	-3%	COC(=O)c1cc2sccc2n1CC(=O)N(C)c1ccccc1
·	-2%	COc1ccc(CNC(=O)CCn2nc(C)c3c(C)n(-c4ccccc4)nc3c2=O)cc1OC
6%	-13%	Cn1c(=O)c2c(ncn2CC(=O)OCc2ccccc2)n(C)c1=O
·	17%	CN(CC(=O)Nc1ccc(Cl)cc1)C(=O)COc1ncnc2ccccc12
-14%	-1%	CCCN(CCC)C1CC(=O)N(Cc2ccccc2)C1=O (configuration not stated)
-7%	?	CCOc1cc(/C=C/C(=O)Nc2ccc(C(=O)NCCN(CC)CC)cc2)ccc1OCC(C)C
-3%	-11%	Cc1ccc2cccc(OC(=O)/C=C\c3ccccc3)c2n1
·	17%	Cc1ccc(CSc2ncc(Cl)c(C(=O)Nc3nc4ccc(C)cc4s3)n2)cc1
1%	4%	COc1ccc(CC2(CO)CCN(Cc3ccc(NC(C)=O)cc3)CC2)cc1

(next part)
N370S GC mod	FEN1 inh	SMILES
·	-10%	CN(CC(=O)NCC1COc2ccccc2O1)S(=O)(=O)c1ccc(Cl)cc1 (configuration not stated)
-5%	-8%	CC(C)NC(=O)COC(=O)c1ccc(S(=O)(=O)N2CCCC2)cc1
1%	9%	COc1ccc(N2CCOCC2)c(NC(=O)COc2cccc(C)c2)c1
12%	-1%	CCn1c(SC(C)C)nnc1C1CCN(S(=O)(=O)c2ccc(OC)cc2)CC1
·	8%	CCCn1c(SCC(=O)N2CCc3ccccc32)n[nH]c1=O
28%	12%	COc1cc2[nH]c(=S)n(C3CCCC3)c(=O)c2cc1OC
·	1%	Oc1c(C(c2ccccc2Cl)N2CCOCC2)sc2nc(-c3ccco3)nn12 (configuration not stated)
6%	-1%	CC(NO)/C(=N\O)c1cccs1 (configuration not stated)
22%	-1%	COC(=O)/C=c1/sc2n(c1=O)CCN=2
-13%	1%	CCCn1c(SCC(=O)Nc2c(C)cccc2C)nnc1C(C)C
12%	5%	CC(=O)c1c(C)[nH]c(C(=O)N2CCc3ccccc32)c1C
11%	-5%	COC(=O)c1cccnc1NC(=S)NC(C)C
23%	-5%	O=C(OCCN1C(=O)c2ccccc2C1=O)c1cc2ccccc2o1
-18%	8%	CCCCCNC(=O)Cc1cc(=O)[nH]c(=O)[nH]1
2%	-5%	CC(Sc1nccn1C)C(=O)Nc1ccc(Cl)cn1 (configuration not stated)
-10%	-2%	CCC(C(=O)NNC(=O)c1cnccn1)c1ccccc1 (configuration not stated)
-2%	21%	O=C(NNC(=S)NC(=O)c1ccccc1)c1cccnc1
4%	2%	COc1cccc(C(=O)COc2ccc3c(C)c(Cc4ccccc4)c(=O)oc3c2)c1
15%	-2%	Cc1ccc(CN2C(=O)CCC2C(=O)NCCCN2CCOCC2)cc1 (configuration not stated)
-16%	-3%	CC(C)CC(=O)Nc1ccc2c(c1)OCO2
-10%	0%	CCCCC(=O)Nc1ccc(C(=O)Nc2ccc(OC)cc2[N+](=O)[O-])cc1
5%	9%	CCc1ccc2[nH]c(=O)c(C(c3nnnn3Cc3ccccc3)N3CCOCC3)cc2c1 (configuration not stated)
3%	14%	N#Cc1ccc(C(=O)Nc2ccc([N+](=O)[O-])cc2)c(F)c1
·	-17%	COc1ccc(OCC(=O)N2CCN(S(=O)(=O)c3ccc(Cl)s3)CC2)cc1
9%	-11%	O=C(COC(=O)c1ccc2c(c1Cl)C(=O)c1ccccc1C2=O)NC1CCCCC1
-11%	1%	CCOc1ccc(C(=O)Nc2c3c(nn2-c2ccc(C)cc2)CS(=O)C3)cc1OCC (configuration not stated)
·	-2%	O=C(Cc1ccc2c(c1)OCCO2)Nc1cccc(S(=O)(=O)N2CCOCC2)c1
·	-11%	C/C=C(/C)C(=O)O[C@@H]1c2c(ccc3ccc(=O)oc23)OC(C)(C)[C@@H]1OC(C)=O
·	-2%	Cc1ccc(-n2ncc(C(=O)NCc3ccc4c(c3)OCO4)c2C2CCN(C(=O)OC(C)(C)C)CC2)c(C)c1
11%	-1%	CCN(C(=O)CSc1nnc(-c2ccccc2)o1)c1c(N)n(Cc2ccccc2)c(=O)[nH]c1=O

The closing three records of the part before come first, to join the parts:
N370S GC mod	FEN1 inh	SMILES
·	-11%	C/C=C(/C)C(=O)O[C@@H]1c2c(ccc3ccc(=O)oc23)OC(C)(C)[C@@H]1OC(C)=O
·	-2%	Cc1ccc(-n2ncc(C(=O)NCc3ccc4c(c3)OCO4)c2C2CCN(C(=O)OC(C)(C)C)CC2)c(C)c1
11%	-1%	CCN(C(=O)CSc1nnc(-c2ccccc2)o1)c1c(N)n(Cc2ccccc2)c(=O)[nH]c1=O
3%	11%	COc1ccccc1NC(=O)N(Cc1cc2cc(OC)c(OC)cc2[nH]c1=O)CC1CCCO1 (configuration not stated)
0%	-5%	CC(C)(C)c1ccc(C(=O)NNC(=O)C2CCCCC2)cc1
-10%	5%	COc1cc(C(=O)NCc2ncccc2C)ccc1OC1CCN(C(C)=O)CC1
4%	-4%	CCOC(=O)c1[nH]c(C)c(C)c1C
4%	18%	CCN(CCCNC(=O)Cn1ncc2c(=O)oc3ccccc3c21)c1cccc(C)c1
2%	9%	Cc1ccc(N2C(=O)N(CC(=O)NCc3ccc(Cl)cc3)C(=O)C2C)cc1 (configuration not stated)
4%	12%	O=C(NC(NC(=S)Nc1ccccc1C(=O)O)C(Cl)(Cl)Cl)c1cccc([N+](=O)[O-])c1 (configuration not stated)
-1%	-1%	N#CCn1nnc(-c2ccc3c(c2)OCO3)n1
0%	-2%	Cc1ccc(CCC(=O)Nc2ccc(C#N)cc2)o1
·	5%	Cc1ccc(NC(=O)CN2C(=O)NC3(CCCCCC3)C2=O)cc1Cl
5%	10%	O=C(Cc1ccc(F)cc1)Nc1nc(-c2ccc(F)cc2)cs1
·	8%	NS(=O)(=O)c1ccc2nc(NC(=O)COc3ccc(Cl)cc3Cl)sc2c1
1%	-4%	COC(=O)c1cc(NC(=O)C2COc3ccccc3O2)ccc1Cl (configuration not stated)
?	-16%	C=CCOc1ccc(-c2nc3c(c(=O)[nH]c(=O)n3Cc3ccccc3)n2CCCOC)cc1
·	6%	O=C(COC(=O)c1ccc(Br)o1)NCc1ccccc1Cl
3%	-7%	Cc1onc(-c2c(F)cccc2Cl)c1C(=O)NCCc1ccc(S(N)(=O)=O)cc1
-4%	-1%	O=C1N/C(=C/c2ccc(N3CCOCC3)cc2)C(=O)N1Cc1ccc(F)cc1
-7%[21.6 µM]	·	NC(=O)c1cc[n+](CC2=C(C(=O)O)N3C(=O)[C@@H](NC(=O)[C@H](c4ccccc4)S(=O)(=O)[O-])[C@@H]3SC2)cc1
2%	·	NCCCCC(N)C(=O)NC(Cc1ccc(O)cc1)C(=O)NC(CCCCN)C(=O)O (configuration not stated)
-4%	-6%	CN(C(=O)CSc1nc2cc(Cl)ccc2c(=O)n1Cc1ccco1)C1CCS(=O)(=O)C1 (configuration not stated)
·	13%	CCOc1ccc2ncc3c(-c4cccc(OC)c4)nn(-c4ccccc4)c3c2c1
-11%	7%	CC(=O)COC(=O)c1cc(-c2ccc(C)cc2)nc2ccccc12

Some of the compounds tested, and most or all hits are left out here.
